B2AR ag – human beta-2 adrenergic receptor agonism by FAP. actives 0.43% (n = 340,000). response, % (test concentration not listed). Am2.2-beta2AR cells, FAP receptor internalization, flow cytometry; reference of the scale not given here. AID 504454. P07550;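 active means response above a set limit, near 3 SD of response in nonfluorescent compounds, cut at about 42% in these data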;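 further: stock transfer was 100 nL into about 11 µL; a reference agonist was the positive control; negative values mostly stem from fluorescent compounds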
LANA-H2A inh – blocks KSHV LANA binding to histone H2A/H2B. Q9QR71. cell-free LANA-H2A/H2B peptide, fluorescence polarization. inhibition, % (no concentration beside the values). actives 0.6% (n = 320,000); in the data active means inhibition mostly above about 10%, no sharp cut-off; inactive means mostly below about 6.7%;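 further: stock transfer was 7.5 nL into about 10 µL; 0% = median of vehicle wells and 100% = median of positive control wells; one replicate is shown; the record names a cut of 25% in any replicate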
Beta apoptosis – beta cell apoptosis inhibition | protection from apoptosis, % (test concentration not listed) | INS-1E cytokine-induced death, ATP luminescence, 48 h; percent of positive-control rescue, neutral wells zero | actives 0.8% (n = 300,000) | AID 435005;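 active means all replicates at 75% or more, or half of them and the mean; inconclusive means half reach 75% but not the mean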;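 further: 0% = cytokine-treated negative control wells and 100% = positive control rescue; higher means more ATP so stronger rescue from cytokine killing; wells of about 40 µL received 100 nL stock; the first replicate is given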
T cruzi inh – T. cruzi replication inhibition. inhibition, % (no concentration beside the values). T. cruzi beta-gal in NIH3T3, luminescence, 90 h. AID 1885. actives 1.4% (n = 300,000);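 active means mean inhibition across valid replicates above about 55%, limit read from the data; inconclusive means mean below that limit but half or more replicates reach it; inactive means mean below it, under half of replicates reach it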;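 further: signal also drops with host cell toxicity which is not excluded here; 0% = plate median of DMSO wells and 100% = zero luminescence signal; higher percent means less beta-gal luminescence so fewer parasites; stock transfer was 50 nL into about 50 µL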
UCH37 inh – human UCH37 deubiquitinating enzyme inhibition; Q9Y5K5; purified proteasome/UCH37, Ub-AMC cleavage fluorescence; inhibition, % (no concentration beside the values); actives 0.33% (n = 330,000); AID 588478;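 active means mean of two replicates above 20%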;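 further: 0% = compound-free wells with enzyme and 100% = wells lacking proteasome; stock transfer was 100 nL into about 20 µL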
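Material: human UCH37 enzyme supplied as purified proteasome complex. Measure: % inhibition of Ub-AMC cleavage fluorescence. Medium: pH 7.4 Tris-HCl (50 mM) with ovalbumin, ATP-MgCl2, DTT. Times: 30 min preincubation with enzyme, 25 min cleavage at room temperature. Detection: AMC fluorescence intensity at 355/460 nm.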
RanGTP-Impb inh – inhibitors of RanGTP-importin-beta interaction, primary screen, biochemical, FRET, CFP-Ran, YFP-importin-beta, homogeneous; actives 1.1% (n = 300,000); cell-free CFP-Ran/YFP-importin-beta FRET ratio; AID 2216; inhibition, % (no concentration beside the values);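 active means most replicates above 15%; inconclusive means exactly half above 15%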;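 further: 0% = DMSO wells and 100% = Ran loaded with GDP instead of GTP; wells of about 40 µL received 100 nL stock; the first replicate is given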
Calb FLC – affects C. albicans growth with fluconazole. growth inhibition, % (test concentration not listed). actives 0.57% (n = 300,000). C. albicans CaCi-2 (fluconazole-resistant clinical isolate) + fluconazole, Alamar Blue growth, 48 h;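 active means most replicates above 75%; inconclusive means exactly half above 75%; inactive means most below 75%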;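 further: all wells also contain fluconazole at 8 µg/ml as a sub-toxic cotreatment; 0% = median of DMSO wells and 100% = median of geldanamycin control wells; wells of about 8 µL received 7.5 nL stock; the first replicate is given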
A1 inh – inhibitors of the anti-apoptotic protein A1, read as caspase activation | actives 0.066% (n = 330,000) | MEF A1-2A-BIM cells, Caspase-Glo 3/7 luminescence, 3 h; percent of clofoctol response, vehicle zero | AID 2462 | caspase activation, % (test concentration not listed);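 active means over half of replicate activation scores above 10%, or exactly half above 10 with the replicate mean above 10; inconclusive means replicate mean below 10 yet half the replicates above 10; inactive means over half of replicates below 10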;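 further: wells of about 30 µL received 50 nL stock; many hits fall short of the cut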
* = called active by the depositor.

Results for Cc1cc(Nc2ccccc2)nc(NCc2ccccc2)n1 ?
B2AR ag: 7; LANA-H2A inh: -1.1; Beta apoptosis: 101*; T cruzi inh: 37; UCH37 inh: -3.4; RanGTP-Impb inh: -0.6; Calb FLC: 97*; A1 inh: 0.6

What do the screens show for `CCn1c2ccccc2c2cc(NC(=O)CN(C)CC(=O)Nc3ccc(N4CCOCC4)cc3)ccc21`?
B2AR ag: 11; LANA-H2A inh: -3.0; Beta apoptosis: 2; T cruzi inh: 8; UCH37 inh: -1.0; RanGTP-Impb inh: 1.5; Calb FLC: 6; A1 inh: 0.1

How did COc1ccc(OCC(=O)Nc2ccc(C(=O)Nc3ccccc3C(=O)O)cc2)cc1 do in these assays?
B2AR ag: -1; LANA-H2A inh: -7.0; Beta apoptosis: 0; T cruzi inh: -15; UCH37 inh: 7.4; RanGTP-Impb inh: -0.8; A1 inh: -2.7

Results for CCN1CCC(Nc2ccnc3cc(Cl)ccc23)CC1 ?
B2AR ag: 1; LANA-H2A inh: 2.5; Beta apoptosis: 6; T cruzi inh: 44; UCH37 inh: 0.5; RanGTP-Impb inh: 3.2; Calb FLC: 9; A1 inh: -0.1

How did CC(C)(C)c1ccccc1OCC(=O)Nc1ccccc1C(=O)NCc1cccnc1 do in these assays?
B2AR ag: 18; LANA-H2A inh: 1.8; Beta apoptosis: 3; T cruzi inh: 62*; UCH37 inh: 4.3; RanGTP-Impb inh: 1.4; Calb FLC: 0; A1 inh: -0.3

Results for CC1=NNC(=O)C1Cc1ccccc1C (stereo unspecified) ?
B2AR ag: 6; LANA-H2A inh: -2.7; T cruzi inh: 0; UCH37 inh: 1.4; RanGTP-Impb inh: -0.6; Calb FLC: -14; A1 inh: -0.3

What do the screens show for `CCCC(=O)N(CCN1CCOCC1)c1nc2cc(C)c(C)cc2s1`?
B2AR ag: -6; LANA-H2A inh: -1.9; Beta apoptosis: 8; T cruzi inh: 9; UCH37 inh: 1.4; RanGTP-Impb inh: 6.0; Calb FLC: 6; A1 inh: -0.8

What do the screens show for `CCOC(=O)c1cnn(-c2nc(OCC)cc(OCC)n2)c1C`?
B2AR ag: -13; LANA-H2A inh: -7.5; Beta apoptosis: 4; T cruzi inh: -13; UCH37 inh: 1.2; RanGTP-Impb inh: inconclusive; Calb FLC: -4; A1 inh: -1.0

What do the screens show for `CC(=O)N/N=C/c1c(C)[nH]n(-c2ccccc2)c1=O`?
B2AR ag: -5; LANA-H2A inh: -0.2; Beta apoptosis: 3; T cruzi inh: -2; RanGTP-Impb inh: 3.2; Calb FLC: -8; A1 inh: -0.2

How did O=S(=O)(NCc1cn2ccccc2n1)c1cc(F)ccc1F do in these assays?
B2AR ag: -1; LANA-H2A inh: -1.9; Beta apoptosis: -8; T cruzi inh: -16; UCH37 inh: 1.0; RanGTP-Impb inh: -11; A1 inh: -0.2

Results for O=C(C1COc2ccccc2O1)N1CCN(S(=O)(=O)c2cc(F)ccc2F)CC1 (stereo unspecified) ?
B2AR ag: 4; LANA-H2A inh: 8.6; Beta apoptosis: 2; UCH37 inh: -0.2; A1 inh: 0.3

Results for COCCCn1c(C(=O)N2CC(C)OC(C)C2)cc2c(=O)n3ccccc3nc21 (stereo unspecified) ?
B2AR ag: -14; LANA-H2A inh: -2.4; Beta apoptosis: -7; T cruzi inh: -12; UCH37 inh: inactive; RanGTP-Impb inh: 3.7; Calb FLC: -3; A1 inh: -1.3

How did Cc1ccc(C(=O)O)cc1NC(=S)NC(=O)Cc1ccccc1 do in these assays?
B2AR ag: 21; LANA-H2A inh: -0.3; Beta apoptosis: -6; T cruzi inh: -17; UCH37 inh: 0.1; RanGTP-Impb inh: -1.4; Calb FLC: 5; A1 inh: 0.3

What do the screens show for `c1cncc(CSc2nnc3ccc(-c4ccco4)nn23)c1`?
B2AR ag: 0; LANA-H2A inh: -5.0; Beta apoptosis: -3; T cruzi inh: -9; UCH37 inh: 1.8; RanGTP-Impb inh: 0.7; Calb FLC: 1; A1 inh: -0.3

How did Cc1ccc(OC(=O)c2ccc3snnc3c2)cc1 do in these assays?
B2AR ag: 2; LANA-H2A inh: 0.6; Beta apoptosis: -13; T cruzi inh: -6; UCH37 inh: -0.5; RanGTP-Impb inh: -1.7; Calb FLC: 16; A1 inh: -0.6

How did CC1Cc2ccccc2N1C(=O)CSc1nnc(-c2ccc(S(=O)(=O)N3CCCC3)cc2)o1 (stereo unspecified) do in these assays?
B2AR ag: 10; LANA-H2A inh: -0.6; Beta apoptosis: -9; T cruzi inh: 38; UCH37 inh: 6.3; RanGTP-Impb inh: 6.3; Calb FLC: -2; A1 inh: -0.8

What do the screens show for `COc1cccc(NC(=O)c2ccccc2-c2ccccc2C(=O)O)c1`?
B2AR ag: -1; LANA-H2A inh: 0.2; Beta apoptosis: -4; T cruzi inh: -10; UCH37 inh: 3.9; RanGTP-Impb inh: -1.6; Calb FLC: -3; A1 inh: 0.0

What do the screens show for `CCOC(=O)c1ccc(NS(=O)(=O)c2cc(-c3nnnn3CC)ccc2OC)cc1`?
B2AR ag: 3; LANA-H2A inh: -1.7; Beta apoptosis: 12; T cruzi inh: 3; UCH37 inh: 4.4; RanGTP-Impb inh: 3.3; Calb FLC: inconclusive; A1 inh: 0.0

Results for Cc1cccc(N(C)S(=O)(=O)c2csc(C(N)=O)c2)c1 ?
B2AR ag: -2; LANA-H2A inh: 0.3; Beta apoptosis: -4; T cruzi inh: -6; UCH37 inh: 6.6; RanGTP-Impb inh: 0.2; Calb FLC: 4; A1 inh: 0.1

Results for COc1ccc(C2C(C(=O)NCc3ccco3)CCC(=O)N2c2ccc(OC)cc2)cc1 (stereo unspecified) ?
B2AR ag: 3; LANA-H2A inh: -3.7; T cruzi inh: -9; UCH37 inh: -1.5; RanGTP-Impb inh: 0.5; Calb FLC: -2; A1 inh: -0.5

What do the screens show for `CCn1c(-c2cc(-c3ccc(C)cc3)nc3ccccc23)n[nH]c1=S`?
B2AR ag: -2; LANA-H2A inh: -1.5; Beta apoptosis: 10; T cruzi inh: 15; UCH37 inh: 1.2; RanGTP-Impb inh: -2.3; Calb FLC: 42; A1 inh: 0.0

How did COc1ccc(O)c(C=Nc2cc(C)on2)c1 do in these assays?
B2AR ag: 6; LANA-H2A inh: 1.8; Beta apoptosis: -3; T cruzi inh: -20; UCH37 inh: 2.9; RanGTP-Impb inh: 0.9; Calb FLC: -13; A1 inh: -0.9

How did COc1ccc2oc(=O)c(C(=O)NCc3ccc(F)cc3)cc2c1 do in these assays?
B2AR ag: 2; LANA-H2A inh: 5.0; Beta apoptosis: 16; T cruzi inh: -9; UCH37 inh: -64; RanGTP-Impb inh: 3.1; Calb FLC: -1; A1 inh: -1.9

What do the screens show for `Cc1oc2ccc(OCc3ccc(F)cc3Cl)cc2c1C(=O)O`?
B2AR ag: -8; LANA-H2A inh: -1.7; Beta apoptosis: -6; T cruzi inh: -5; UCH37 inh: 1.0; RanGTP-Impb inh: 6.4; Calb FLC: 0; A1 inh: -0.8

How did CCOC(=O)C(Cc1c(F)cccc1Cl)c1ccnc2nc(N)nn12 (stereo unspecified) do in these assays?
B2AR ag: 7; LANA-H2A inh: -3.3; Beta apoptosis: -9; T cruzi inh: -6; UCH37 inh: -42; RanGTP-Impb inh: inconclusive; Calb FLC: -3; A1 inh: 1.7

How did COc1cccc(/C=N/NC(=O)C(=O)NCc2ccco2)c1OC do in these assays?
B2AR ag: 5; LANA-H2A inh: 1.0; Beta apoptosis: -9; T cruzi inh: 7; RanGTP-Impb inh: 0.4; Calb FLC: -13; A1 inh: 0.6

What do the screens show for `C=CCn1c(SCC(=O)Nc2cc(C)ccc2C)nnc1-c1cnccn1`?
B2AR ag: -2; LANA-H2A inh: 1.1; Beta apoptosis: 0; T cruzi inh: 2; UCH37 inh: 1.4; RanGTP-Impb inh: -2.1; Calb FLC: 6; A1 inh: -0.1

Results for Cc1c(NC(=O)c2cc(-c3ccc(F)cc3)nc3ccccc23)c(=O)n(-c2ccccc2)n1C ?
B2AR ag: 4; LANA-H2A inh: -2.4; Beta apoptosis: 0; UCH37 inh: 1.7; A1 inh: 0.6

How did CCCC1Cc2c(sc3ncnc(N)c23)CO1 (stereo unspecified) do in these assays?
B2AR ag: 0; LANA-H2A inh: 0.3; Beta apoptosis: 2; T cruzi inh: -3; UCH37 inh: 1.1; RanGTP-Impb inh: -1.4; Calb FLC: 10; A1 inh: 0.1

Results for COc1ccc(C(=O)NCCn2ccc3ccccc32)c(OC)c1 ?
B2AR ag: -1; LANA-H2A inh: 3.0; Beta apoptosis: 1; T cruzi inh: 10; UCH37 inh: 0.6; RanGTP-Impb inh: -0.1; Calb FLC: 1; A1 inh: -0.7

What do the screens show for `Cc1nc(C)c(-c2csc(NCc3ccccc3)n2)s1`?
B2AR ag: -1; LANA-H2A inh: 2.5; Beta apoptosis: -8; T cruzi inh: 0; UCH37 inh: -0.5; RanGTP-Impb inh: 1.2; Calb FLC: 5; A1 inh: -0.7

Results for O=C(Nc1ccccc1C(=O)N1CCN(Cc2ccccc2)CC1)c1ccc(F)cc1 ?
B2AR ag: -1; LANA-H2A inh: -0.2; Beta apoptosis: 1; T cruzi inh: 6; UCH37 inh: 0.3; RanGTP-Impb inh: inconclusive; Calb FLC: -5; A1 inh: -0.6

Results for CC(=O)c1ccc(NC(=O)CCOc2cc(C)ccc2C)cc1 ?
B2AR ag: -7; LANA-H2A inh: 1.8; Beta apoptosis: -2; T cruzi inh: -5; UCH37 inh: 3.1; RanGTP-Impb inh: 0.6; Calb FLC: -3; A1 inh: -1.8

How did Cc1cc(OCC(=O)N2CCOCC2)ccc1NC(=O)C1CCCCC1 do in these assays?
B2AR ag: -4; LANA-H2A inh: -0.7; Beta apoptosis: -1; T cruzi inh: -5; UCH37 inh: 1.3; RanGTP-Impb inh: 1.6; Calb FLC: -7; A1 inh: -0.7

Screens: PubChem BioAssay, several laboratories
